Bead autofluor = counter-screen for toxin protease inhibitors: compound fluorescence. fluorescence intensity (concentration not given with the values). compound autofluorescence counterscreen, microsphere flow cytometry; hits give high values. AID 624483. hit rate 3.1% among 360,000;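 active = at least 3 SD above the mean of all compounds, about 16000 in these data; inconclusive = too few beads counted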;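 note: 100 nL of 1 mM stock went into each well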
Mtb hypoxia inh = PubChem AID 1159583. M. tuberculosis hypoxia-regulated fluorescent reporter, fluorescence. fluorescence inhibition, % (no concentration beside the values). hit rate 0.1% among 300,000;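 active = 35 to 45% if threefold the growth effect, above 45% if 1.5-fold the growth effect; inactive = the rest, general growth blockers included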;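 note: wells of about 50 µL received 100 nL stock; 0% = vehicle wells and 100% = reference inhibitor wells; whole bacteria with a GFP reporter of the hypoxia response; strong numbers were not always called active; many hits fall short of the cut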
PrP 5UTR inh = inhibition of PrP 5' UTR reporter expression; inhibition, % (concentration not given with the values); cell-based PrP 5' UTR mRNA reporter, plate reader; hit rate 0.35% among 340,000; AID 488862, 2010;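 active = every replicate at 50% or more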;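 note: 0 = median of the neutral control wells; tested in H4 reporter cells; numbers are from one replicate; inactives centre near -14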
BJeLR viability = MLPCN primary cell-based screen for lethality selective to Ras in HRASV12 cells | BJeLR (HRASV12) viability, CellTiter-Glo ATP luminescence, 48 h; reference of the scale not given here | hit rate 0.17% among 300,000 | inhibition, % (no concentration beside the values) | AID 1554, 2009;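 active = replicate mean above 50%; inconclusive = above 50% but judged a plate artefact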;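 note: 50 nL library stock added to about 25 µL; numbers are from one replicate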
Sa RN4220 lethal = growth inhibition of S. aureus RN4220, primary screen, OD600; inhibition, % (test concentration not listed); 16 h; AID 1259311, 2017; hit rate 0.33% among 330,000;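 active = z-score of -3 or lower and OD600 up to 0.18 on both plates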;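 note: plate controls were untreated cells for no effect and reference antibiotic for full effect; stock transfer was 100 nL into about 80 µL; one replicate is shown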
ugtP null kill = growth inhibition of ugtP-null S. aureus, primary screen, RN4220 ugtP deletion, OD600; growth inhibition, % (concentration not given with the values); hit rate 0.54% among 330,000; AID 1259309, 2017; 16 h; some inactives read as strong as hits;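 active = z-score under -3 and OD600 up to 0.15 on both plates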;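 note: plate controls were untreated wells for no effect and antibiotic for full effect; wells of about 80 µL received 100 nL stock; the first replicate is given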
Mtb hypoxia inh growth = also measured in Mtb hypoxia inh; calls as there; growth inhibition, %; measured here: M. tuberculosis growth (absorbance);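 0% = vehicle and 100% = reference antibiotic; read after six days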
Numbers without * were called inactive; ? = inconclusive; nt = not tested or not shown.

Each structure is followed by: Bead autofluor, Mtb hypoxia inh, Mtb hypoxia inh growth, PrP 5UTR inh, BJeLR viability, Sa RN4220 lethal, ugtP null kill
COc1ccc(N2CC(C(=O)N/N=C/c3ccc([N+](=O)[O-])cc3)CC2=O)cc1 (stereo not drawn)
 : 2585, nt, nt, -30, -5, nt, nt
N#C/C(=C/c1ccc(OCc2ccccc2)cc1)C(=O)NC1CCCCC1
 : 3979, 7, 4, -10, -4, -0.7, -7
CCNc1ccc(C(=O)OCC(=O)Nc2cc(C)on2)cc1[N+](=O)[O-]
 : 3292, -2, -2, -10, nt, 11, 7
O=C(Cn1nnc(-c2cccs2)n1)N1CCOCC1
 : 3257, 12, 1, -15, -19, 2.3, 7
CCOc1ccc(C(O)=C2C(=O)C(=O)N(CCOCCO)C2c2cccnc2)cc1 (stereo not drawn)
 : nt, -3, -6, nt, nt, 2.8, -1
C=C(C)C(=O)N1CC2(CC(c3cccc(NC(=O)COc4ccc(Cl)cc4)c3)=NO2)CC1C(N)=O (stereo not drawn)
 : nt, 13, 4, nt, nt, -1.7, 0
COc1ccc(CC(=O)N(c2ccccc2)c2nc(C)cs2)cc1
 : 2223, 4, 15, -25, 4, 4.4, 5
CCn1cc(C(=O)N2CC(C)CC(C)C2)c(=O)c2cc(S(=O)(=O)N3CCCC3)ccc21 (stereo not drawn)
 : 4348, 2, 2, -10, -1, 2.7, 0
COCCNc1nc(-n2nc(C)cc2C)nc2sc3c(c12)CCCC3
 : 2310, nt, nt, -20, 9, nt, nt
CCOC(=O)C1(NC(=O)CN2C(=O)c3ccccc3C2=O)CCCC1
 : 3731, 10, 10, -22, nt, 4.1, 5
Cn1c(C(=O)N2CCCC(Nc3ccc(F)cc3)C2)cc2ccccc21 (stereo not drawn)
 : 5999, -2, 13, -11, -12, -3.5, -11
Clc1cc(Br)ccc1OCCCNCc1ccccc1
 : 2192, 7, 10, -8, 4, -5.5, -20
COc1cc(C(=O)Nc2ccc(N3CCOCC3)cc2)ccc1OCc1c(C)noc1C
 : 9346, 8, 7, -34, 3, 3.9, 2
Clc1cc(Br)ccc1OCCOCCOc1cccc2cccnc12
 : 4504, nt, nt, -4, 2, 10, -8
O=c1[nH]c(=O)n(Cc2ccccc2)c(O)c1C=NCCN1CCOCC1
 : 8167, -6, 9, -16, 6, 4.5, 3
O=C(OC1Cn2c(=O)ccc(=O)n2C1)c1ccc([N+](=O)[O-])cc1
 : 2310, 0, 7, -6, 4, 2.3, 7
COc1ccc(C(=O)N2CCC(C(=O)NC3CC3)CC2)cc1
 : 6000, 7, 1, -27, 2, 3.9, 11
N#C/C(=C/c1cn[nH]c1-c1cccc(Br)c1)C(=O)O
 : 4042, 0, 8, -21, -2, 2.9, 4
COc1ccccc1N1CCN(S(=O)(=O)c2ccccc2)CC1
 : 19619*, 7, 6, -23, -13, 0.9, 2
COc1ccc(C=NNC(=O)c2sccc2C)c2ccccc12
 : nt, -5, -2, nt, nt, -0.3, 5
O=C(CCNC(=O)Cn1ccc2ccccc2c1=O)NCCc1ccccc1Cl
 : 2157, 13, 0, -9, 5, 3.0, 11
Cc1ccc2cc(CN(CCN(C)C)C(=S)Nc3ccccc3)c(=O)[nH]c2c1C
 : 4031, 10, 10, -19, -5, 0.8, 17
CN(C)S(=O)(=O)c1ccc(C(=O)OCCn2cnc3c2c(=O)n(C)c(=O)n3C)cc1
 : 4574, -6, -2, -51, nt, 5.1, 1
O=C(COc1cccc(C(F)(F)F)c1)NNC(=O)Cn1c(=O)cnc2ccccc21
 : 4650, nt, nt, -1, 17, nt, nt
CCOC(=O)N1CCC(N2CC34C=CC(O3)C(C(=O)Nc3ccc(F)cc3)C4C2=O)CC1 (stereo not drawn)
 : 4086, nt, nt, -9, -10, -4.4, -7
CC12CCC(C(=O)NCCCN3CCOCC3)(OC1=O)C2(C)C (stereo not drawn)
 : 22515*, -8, 12, 1, 2, 1.0, -4
COc1ccc(/C=C2\SC(=S)N(CC(=O)N(C)C3CCS(=O)(=O)C3)C2=O)cc1 (stereo not drawn)
 : 5559, 6, 0, 0, -4, -0.7, -4
CC(C)c1ccc(NS(=O)(=O)c2ccc3c(c2)NC(=O)CO3)cc1
 : 5296, 0, 1, -24, 9, -0.5, 4
CC(C)(C)SCCNS(=O)(=O)c1ccc(Cl)cc1
 : 7055, -3, -2, -10, 2, 1.4, -6
CCN(CC)c1ccc(/C=N/N2CCN(Cc3ccccc3)CC2)c(O)c1
 : 2545, nt, nt, -11, 19, nt, nt
COc1ccccc1C1NC(=O)CS1 (stereo not drawn)
 : 2848, nt, nt, -28, -3, 1.3, 1
COc1cc2c(cc1OC)C(C)N(C(=O)CCN1C(=O)C3C4C=CC(C4)C3C1=O)CC2 (stereo not drawn)
 : 3869, nt, nt, -16, nt, 2.5, 3
CCN(CC)c1c([N+](=O)[O-])ncn1C
 : 2900, nt, nt, -15, 0, -0.8, 4
COc1ccc(-c2nc3cc([N+](=O)[O-])ccc3o2)cc1
 : 4317, -1, -3, -77, 9, 3.5, -7
O=C(Nc1nnc(C2CC2)s1)C1CCCO1 (stereo not drawn)
 : 4351, -5, 2, -20, -1, 8.5, 8
CC(=O)N1CCN(C(=O)c2cc(S(=O)(=O)N3CCN(c4ccccc4)CC3)ccc2Cl)CC1
 : 4915, 6, 6, -24, nt, 2.8, 5
Cc1ncc([N+](=O)[O-])n1CCOC(=O)c1ccc(Cl)cc1Cl
 : 2392, 23, 15, -8, 21, 15, -6
CC(C)Cc1cc(C(=O)Nc2ccc3c(c2)OCO3)no1
 : 5316, 3, 0, -114, -7, 9.2, 11
COc1cc(C(C)=O)ccc1Oc1ncccn1
 : 2977, -5, -9, -3, -16, -1.3, 5
O=C(CSc1nc2ccccc2c(=O)n1CCCN1CCOCC1)c1c[nH]c2ccccc12
 : 2175, -16, 4, -1, -7, 6.7, -12
Cc1ccccc1NS(=O)(=O)c1ccc(C(=O)N2CCCCCCC2)cc1
 : 6119, 2, 0, -35, 13, 10, 2
CCOC(=O)c1sc2ncn(N=Cc3ccc(O)c(OC)c3)c(=O)c2c1C
 : nt, 13, 1, nt, nt, 6.6, 2
COc1ccc(-c2cccc(C3CC=CC4C3C(=O)N(Cc3ccccc3)C4c3ccc(OC)c(Cl)c3)c2)cc1 (stereo not drawn)
 : 4034, 14, 1, -3, -1, 9.6, 14
O=[N+]([O-])c1cnccc1Nc1cccc(F)c1
 : 8975, 4, 10, -24, -16, 8.6, 3
O=C(NC1CCS(=O)(=O)C1)Oc1ccccc1 (stereo not drawn)
 : 4305, nt, nt, -21, 18, 1.5, -2
Cc1cc(C)c(OCC(=O)Nc2ccccc2N2CCCCC2)c(C)c1
 : 5983, 1, 15, -18, -4, -5.7, -4
CN1CCN(S(=O)(=O)c2cnc(Cl)c(Br)c2)CC1
 : 2076, 1, 5, -5, 11, 3.9, 2
Cc1ccc(NC(=O)CCC(=O)n2nc(C)cc2C)c(C)c1
 : 4108, 9, 5, -31, -10, 6.4, 0
O=[N+]([O-])c1ccc(N2CCNCC2)c(Cl)c1
 : 3245, 0, 15, -1, -10, 7.1, 2
COC(=O)c1ccc(C(=O)Nc2ccc(N)cc2N)cc1
 : 2448, 15, 8, -12, -4, -12, -7
N#CC1=C(N)N(c2ccccc2)C2=C(C(=O)CCC2)C1c1cccs1 (stereo not drawn)
 : ?, -7, 1, -5, -7, 3.1, -13
Cc1ncc(CO)c2cc(S(=O)(=O)c3ccc(F)cc3)c(=O)oc12
 : 5933, nt, nt, -26, -1, 0.2, 2
COc1ccccc1/C=C/C=N/n1c(C2CCCCC2)n[nH]c1=S
 : 2115, nt, nt, -6, -20, nt, nt
Cc1ccc(F)c(Cn2cnc3c(cnn3C(C)(C)C)c2=O)c1Cl
 : 3022, 2, 10, 2, nt, -2.4, -2
COC(=O)c1ccc2c(c1)S(=O)(=O)NC(=NCCCN1CCOCC1)S2
 : 4682, nt, nt, -12, 15, 0.1, 3
COC(=O)c1ccccc1NS(=O)(=O)c1ccc2[nH]c(=O)[nH]c2c1
 : 2519, 2, -9, -14, 4, 3.6, 2
O=C(NCC(c1cccs1)N1CCOCC1)c1ccc([N+](=O)[O-])cc1 (stereo not drawn)
 : 2527, nt, nt, -24, -20, nt, nt
Cc1ccc(CNC(=O)CCNS(=O)(=O)c2ccc(Br)s2)cc1
 : 3442, 11, 8, -24, 0, 4.8, 3
O=C1CN(C(=O)NCC(=O)N[C@H](Cc2ccccc2)C(=O)O)c2ccccc2N1
 : 4249, nt, nt, -16, -3, 2.6, 7
COc1cc2c(cc1OC)C(c1cccs1)N(C(=S)NC(C)C)CC2 (stereo not drawn)
 : 5247, 2, 1, -132, 19, 6.1, -5

(listing goes on)
Each structure is followed by: Bead autofluor, Mtb hypoxia inh, Mtb hypoxia inh growth, PrP 5UTR inh, BJeLR viability, Sa RN4220 lethal, ugtP null kill
O=C(C1CCCN(S(=O)(=O)c2cc(Cl)ccc2Cl)C1)N1CCOCC1 (stereo not drawn)
 : 5924, 12, 5, -20, 13, 5.4, -1
CC1CN(C(C)CO)C(=O)Cc2cc(NC(=O)CCC(F)(F)F)ccc2OC1CN(C)C(=O)Nc1ccc(F)cc1 (stereo not drawn)
 : nt, 6, 4, nt, nt, 4.9, -1
O=C(NN=Cc1ccc(OCc2cnc(Cl)s2)cc1)c1ccncc1
 : nt, nt, nt, nt, nt, 5.1, 8
CCOC(=O)c1c(NC(=O)Cn2nc(C(=O)O)c3ccccc3c2=O)sc2c1CCC(C)C2 (stereo not drawn)
 : nt, -11, -6, 3, -2, 0.0, -1
CC1(CCc2ccc(O)cc2)NC(=O)NC1=O (stereo not drawn)
 : 2786, 11, -7, -15, -6, 4.6, 1
CC(C)C(=O)Nc1ccccc1N1CCN(C(=O)c2ccccc2)CC1
 : 2829, nt, nt, -20, 9, 2.0, -2
COc1cc(C(=O)COC(=O)c2cc([N+](=O)[O-])ccc2N2CCOCC2)ccc1OC(F)F
 : 5220, 6, 11, -15, -16, 0.7, 10

A second format for part of the listing above.
compound,Bead autofluor,Mtb hypoxia inh,Mtb hypoxia inh growth,PrP 5UTR inh,BJeLR viability,Sa RN4220 lethal,ugtP null kill
Cc1ccc(F)c(Cn2cnc3c(cnn3C(C)(C)C)c2=O)c1Cl,3022,2,10,2,nt,-2.4,-2
COC(=O)c1ccc2c(c1)S(=O)(=O)NC(=NCCCN1CCOCC1)S2,4682,nt,nt,-12,15,0.1,3
COC(=O)c1ccccc1NS(=O)(=O)c1ccc2[nH]c(=O)[nH]c2c1,2519,2,-9,-14,4,3.6,2
O=C(NCC(c1cccs1)N1CCOCC1)c1ccc([N+](=O)[O-])cc1 (stereo not drawn),2527,nt,nt,-24,-20,nt,nt
Cc1ccc(CNC(=O)CCNS(=O)(=O)c2ccc(Br)s2)cc1,3442,11,8,-24,0,4.8,3
O=C1CN(C(=O)NCC(=O)N[C@H](Cc2ccccc2)C(=O)O)c2ccccc2N1,4249,nt,nt,-16,-3,2.6,7
COc1cc2c(cc1OC)C(c1cccs1)N(C(=S)NC(C)C)CC2 (stereo not drawn),5247,2,1,-132,19,6.1,-5
O=C(C1CCCN(S(=O)(=O)c2cc(Cl)ccc2Cl)C1)N1CCOCC1 (stereo not drawn),5924,12,5,-20,13,5.4,-1
CC1CN(C(C)CO)C(=O)Cc2cc(NC(=O)CCC(F)(F)F)ccc2OC1CN(C)C(=O)Nc1ccc(F)cc1 (stereo not drawn),nt,6,4,nt,nt,4.9,-1
O=C(NN=Cc1ccc(OCc2cnc(Cl)s2)cc1)c1ccncc1,nt,nt,nt,nt,nt,5.1,8
CCOC(=O)c1c(NC(=O)Cn2nc(C(=O)O)c3ccccc3c2=O)sc2c1CCC(C)C2 (stereo not drawn),nt,-11,-6,3,-2,0.0,-1

Bioassay records deposited in PubChem BioAssay by several laboratories.
